High-throughput results (PubChem BioAssay)
c-Myc SMM: c-Myc (human) binding | small molecule microarray, His-c-Myc binding, anti-His fluorescence | calls only | 17,000 compounds, 1.5% hits;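 active = spot fluorescence over background with P-value below 7% in all four replicate spots, showing protein binding; compounds were printed on slides so no solution concentration is given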;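 note: score is binary with 100 for all four spots passing and 0 otherwise; about 2 pmol printed per array spot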
Target sequence (P01106 whole entry, looked up): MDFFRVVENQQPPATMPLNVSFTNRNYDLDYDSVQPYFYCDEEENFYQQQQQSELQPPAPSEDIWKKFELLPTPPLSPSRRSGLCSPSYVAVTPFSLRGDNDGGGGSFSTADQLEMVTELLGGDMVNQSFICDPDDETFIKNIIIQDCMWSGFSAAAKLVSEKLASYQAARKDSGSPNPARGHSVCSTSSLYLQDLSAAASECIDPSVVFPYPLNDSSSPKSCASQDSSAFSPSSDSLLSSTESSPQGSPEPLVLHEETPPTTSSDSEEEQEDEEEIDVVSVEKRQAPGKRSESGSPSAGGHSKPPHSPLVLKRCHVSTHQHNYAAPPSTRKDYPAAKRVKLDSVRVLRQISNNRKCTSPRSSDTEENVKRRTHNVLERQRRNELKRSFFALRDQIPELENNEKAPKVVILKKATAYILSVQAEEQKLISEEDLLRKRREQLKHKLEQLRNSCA
STAT3 SMM: binders of human STAT3 | 17,000 compounds, 0.2% hits | Small molecule microarray, His-STAT3 binding, anti-His fluorescence | calls only | P40763;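 active = compounds whose four printed spots each show fluorescence over background unusually high for their array block, chance value under 7%; compounds were printed on slides so no solution concentration is given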;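 note: about 2 pmol printed per array spot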
ID4 binder: ID4 (human) binding. P47928. small molecule microarray, Flag-ID4 binding, fluorescence F/B. calls only. 31,000 compounds, 1.2% hits. AID 624137;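 active = spot signal over background at p below 0.07 in all four prints; compounds were printed on slides so no solution concentration is given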;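 note: a binder raises fluorescence above local background on the spot; about 2 pmol printed per array spot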
Target sequence (P47928 whole entry, looked up): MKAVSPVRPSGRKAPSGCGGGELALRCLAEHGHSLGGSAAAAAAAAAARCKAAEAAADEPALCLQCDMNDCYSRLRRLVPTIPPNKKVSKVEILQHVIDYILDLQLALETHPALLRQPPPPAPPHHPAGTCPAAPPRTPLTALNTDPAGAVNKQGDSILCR
p53 mut binder: binds human mutant p53 on microarray; small molecule microarray binding, anti-GST fluorescence; calls only; 17,000 compounds, 0.4% hits;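 active = compounds whose four printed spots each glow above background more than chance allows, each with a p-value under 7%; compounds were printed on slides so no solution concentration is given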;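 note: about 2 pmol printed per array spot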
Calls only; i = inactive; / = no result given; + = active, no number.

SMILES	c-Myc SMM	STAT3 SMM	ID4 binder	p53 mut binder
Cc1noc(C)c1S(=O)(=O)Nc1ccc2c(c1)C(=O)N([C@H](C)CO)C[C@@H](C)[C@H](CN(C)CC1CCCCC1)OCCCC[C@H](C)O2	i	i	/	i
Cc1noc(C)c1S(=O)(=O)Nc1ccc2c(c1)C(=O)N([C@H](C)CO)C[C@@H](C)[C@@H](CN(C)C(=O)Nc1ccccc1)O2	i	i	i	i
C[C@H](CO)N1C[C@H](C)[C@H](CN(C)C(=O)Nc2ccccc2)Oc2c(NC(=O)c3ccncc3)cccc2C1=O	i	i	i	i
C[C@@H]1CN([C@@H](C)CO)C(=O)c2cc(NC(=O)CCC(F)(F)F)ccc2O[C@@H](C)CCCCO[C@@H]1CN(C)S(=O)(=O)c1ccccc1	i	i	i	i
COc1cc([C@@H]2c3cc4c(cc3[C@H](O)[C@H]3COC(=O)[C@@H]23)OCO4)cc(OC)c1OC	i	i	/	i
C[C@@H]1CCCCO[C@@H](CN(C)Cc2ccccc2)[C@H](C)CN([C@H](C)CO)C(=O)c2cc(NS(=O)(=O)c3ccccc3)ccc2O1	i	i	i	i
C[C@H](CO)N1C[C@H](C)[C@H](CN(C)C)Oc2ccc(NC(=O)Nc3ccc(F)cc3)cc2CC1=O	i	i	i	i
CNC[C@H]1Oc2ccc(NC(=O)Cc3ccccc3)cc2CC(=O)N([C@H](C)CO)C[C@@H]1C	i	i	+	i
C[C@@H]1CN([C@@H](C)CO)C(=O)c2cccc(NS(=O)(=O)c3cccs3)c2O[C@@H]1CN(C)Cc1ccc(-c2ccccc2)cc1	i	i	i	i
C[C@@H]1CN([C@H](C)CO)C(=O)Cc2cc(NC(=O)CCN3CCOCC3)ccc2O[C@@H]1CN(C)Cc1ccncc1	i	i	i	i
C[C@@H]1CN([C@@H](C)CO)C(=O)CCCn2cc(nn2)CO[C@@H]1CN(C)C(=O)C1CCCCC1	i	i	/	i
C[C@@H]1CN([C@@H](C)CO)C(=O)c2cccc(NS(=O)(=O)c3cn(C)cn3)c2O[C@@H]1CN(C)S(=O)(=O)c1cn(C)cn1	i	i	i	i
CC(C)NC(=O)N(C)C[C@H]1Oc2ccc(N(C)C)cc2CC(=O)N([C@@H](C)CO)C[C@@H]1C	i	i	i	i
Cc1ccc(S(=O)(=O)Nc2ccc3c(c2)CC(=O)N([C@@H](C)CO)C[C@@H](C)[C@@H](CN(C)C(=O)Nc2c(C)noc2C)O3)cc1	i	i	i	i
COc1ccc(NC(=O)N(C)C[C@@H]2Oc3c(cccc3N(C)C)C(=O)N([C@H](C)CO)C[C@H]2C)cc1	i	i	i	i
C[C@H](CO)N1C[C@H](C)[C@@H](CN(C)Cc2ccc(-c3ccccc3)cc2)Oc2ccc(NS(C)(=O)=O)cc2CC1=O	i	i	i	i
COC(=O)CCS(=O)(=O)c1ccc(NC(C)=O)cc1	i	i	i	i
CC1(C)CC[C@]2(C(=O)O[C@@H]3O[C@H](CO[C@@H]4O[C@H](CO[C@@H]5O[C@H](CO)[C@@H](O)[C@H](O)[C@H]5O)[C@@H](O)[C@H](O)[C@H]4O)[C@@H](O)[C@H](O[C@@H]4O[C@H](CO)[C@@H](O)[C@H](O)[C@H]4O)[C@H]3O)CC[C@]3(C)C(=CCC4[C@@]5(C)CC[C@H](O)[C@@](C)(C(=O)O)C5CC[C@]43C)C2C1 (some centres not stated)	i	i	i	i
CNS(=O)(=O)c1ccc(C)cc1	i	i	/	i
Cc1ccccc1NC(=O)NCCCN1CCN(C)CC1	i	i	i	i

A second format for part of the listing above:
molecule | c-Myc SMM | STAT3 SMM | ID4 binder | p53 mut binder
C[C@@H]1CN([C@@H](C)CO)C(=O)c2cccc(NS(=O)(=O)c3cn(C)cn3)c2O[C@@H]1CN(C)S(=O)(=O)c1cn(C)cn1 | i | i | i | i
CC(C)NC(=O)N(C)C[C@H]1Oc2ccc(N(C)C)cc2CC(=O)N([C@@H](C)CO)C[C@@H]1C | i | i | i | i
Cc1ccc(S(=O)(=O)Nc2ccc3c(c2)CC(=O)N([C@@H](C)CO)C[C@@H](C)[C@@H](CN(C)C(=O)Nc2c(C)noc2C)O3)cc1 | i | i | i | i
COc1ccc(NC(=O)N(C)C[C@@H]2Oc3c(cccc3N(C)C)C(=O)N([C@H](C)CO)C[C@H]2C)cc1 | i | i | i | i

Next section.
SMILES	c-Myc SMM	STAT3 SMM	ID4 binder	p53 mut binder
Cc1noc(C)c1S(=O)(=O)Nc1ccc2c(c1)CC(=O)N([C@H](C)CO)C[C@H](C)[C@H](CN(C)C(=O)Nc1cccc3ccccc13)O2	i	i	i	i
C[C@H]1CCCCO[C@@H](CN(C)Cc2ccccc2)[C@@H](C)CN([C@@H](C)CO)C(=O)c2cc(NS(=O)(=O)c3ccccc3)ccc2O1	i	i	i	i
CNC[C@@H]1OCCCC[C@H](C)Oc2ccc(N(C)C)cc2C(=O)N([C@H](C)CO)C[C@@H]1C	i	i	i	i
C[C@@H]1CN([C@@H](C)CO)C(=O)c2cc(NS(=O)(=O)c3ccccc3)ccc2O[C@@H](C)CCCCO[C@H]1CN(C)Cc1ccccc1	i	i	i	i
C[C@H](CO)N1C[C@H](C)[C@H](CN(C)S(=O)(=O)c2cccs2)Oc2ccc(NC(=O)NC3CCCCC3)cc2C1=O	i	i	i	i
COc1cccc(CN2CCN(C(=O)c3cc(-c4ccccn4)nc4ccc(Cl)cc34)CC2)c1	i	i	i	+
C[C@@H]1CN([C@H](C)CO)C(=O)c2cc(NS(=O)(=O)c3ccccc3)ccc2O[C@@H]1CN(C)S(=O)(=O)c1ccc(F)cc1	i	i	/	i
COc1ccc2cc(S(=O)(=O)NCCCN3CCOCC3)ccc2c1	i	i	i	i
CN1CCN(C(=O)C2=C[C@@H](C3CC3)C[C@@H](OCc3ccc(CO)cc3)O2)CC1	i	i	i	i
COc1ccc(C)cc1NC(=O)NCCc1ccc(OC)c(OC)c1	i	i	i	i
COc1ccc(NC(=O)COc2ccccc2OC)cc1OC	i	i	i	i
C[C@H](CO)N1C[C@H](C)[C@H](CN(C)Cc2ccccc2)Oc2ccc(N(C)C)cc2CC1=O	i	i	i	i
C[C@@H]1CN([C@@H](C)CO)C(=O)Cc2cc(N(C)C)ccc2O[C@H]1CN(C)CC1CCCCC1	i	i	i	i
c1ccc2[nH]c(CCc3nc4ccccc4[nH]3)nc2c1	i	i	i	i
CC(Oc1ccc2c(=O)c(-c3ccc(Cl)cc3)c(C(F)(F)F)oc2c1)C(=O)O (configuration not stated)	i	i	i	i
COc1ccc(S(=O)(=O)Nc2cccc3c2O[C@@H](CN(C)S(=O)(=O)c2cn(C)cn2)[C@@H](C)CN([C@H](C)CO)C3=O)cc1	i	i	i	i
COc1ccc(S(=O)(=O)N(C)C[C@@H]2Oc3ccc(NC(=O)Nc4ccc5c(c4)OCO5)cc3CC(=O)N([C@H](C)CO)C[C@H]2C)cc1	i	i	i	i
COc1ccc(NC(=O)N(C)C[C@@H]2Oc3c(NS(=O)(=O)c4cccs4)cccc3C(=O)N([C@H](C)CO)C[C@@H]2C)cc1	i	i	i	i
C[C@@H]1CN([C@H](C)CO)C(=O)c2cc(NC(=O)Cc3ccccc3)ccc2O[C@H]1CN(C)C(=O)NC1CCCCC1	i	i	i	i
COc1ccc(S(=O)(=O)N(C(C)=O)c2ccc3oc4c(c3c2)CC(C)CC4)cc1[N+](=O)[O-] (configuration not stated)	i	i	i	i
COc1ccc(C(=O)N(Cc2nc(-c3ccc(C)cc3)no2)C2CCCCC2)cc1OC	i	i	i	i
Cc1cccc(C)c1NC(=O)COc1cc(O)c2c(=O)cc(-c3ccccc3)oc2c1	i	i	i	i
CC(=O)NCCCN(CCCCN(CCCNC(=O)/C=C/c1ccc(O)cc1)C(C)=O)C(=O)/C=C/c1ccc(O)cc1	i	i	i	i
COc1ccc(S(=O)(=O)N(C)C[C@@H]2Oc3ccc(NC(=O)C4CC4)cc3C(=O)N([C@@H](C)CO)C[C@@H]2C)cc1	i	i	i	i
COC(=O)C1=C(C)NC(C)=C(C(=O)OC)C1c1cc(Br)ccc1OCC(N)=O	i	i	i	i
CC(=O)O[C@@]1(C)C[C@@H](OC(=O)/C=C/c2ccc(O)cc2)[C@@H]2C(C(=O)O)=COC(O[C@@H]3O[C@H](CO)[C@@H](O)[C@H](O)[C@H]3O)[C@@H]21 (some centres not stated)	i	i	/	i
C=C(CO)[C@]1(O)C[C@@]2(C)C(=CC1=O)C=C[C@@H](O)[C@@H]2C	i	i	/	i
Cc1ccc(S(=O)(=O)N(C)C[C@H]2Oc3c(NC(=O)C4CCCCC4)cccc3C(=O)N([C@@H](C)CO)C[C@@H]2C)cc1	i	i	/	i
COc1cccc2c(=O)c(CCC(=O)O)c(C)[nH]c12	i	i	i	i
C[C@@H]1CCCCO[C@@H](CN(C)Cc2ccccc2)[C@@H](C)CN([C@H](C)CO)C(=O)c2cc(N(C)C)ccc2O1	i	i	i	i
C[C@@H]1CN([C@H](C)CO)C(=O)c2cc(NC(=O)c3ccncc3)ccc2O[C@@H](C)CCCCO[C@@H]1CN(C)C(=O)Cc1ccccc1	i	i	i	i
COc1cccc(-c2nc(SCC(=O)Nc3cccc(C(F)(F)F)c3)[nH]c(=O)c2C#N)c1	i	i	i	i
NC(=O)[C@@H]1[C@H]2C(=O)O[C@H](c3ccccc3)[C@H](c3ccccc3)N2[C@H](c2ccc(OCCO)cc2)[C@@]12C(=O)Nc1ccc(C#CC3(O)CCCCCC3)cc12	i	i	i	i
Nc1nc(Cl)nc2c1ncn2C1C[C@@H](O)C(CO)O1 (some centres not stated)	i	i	i	i
Cc1noc(C)c1S(=O)(=O)Nc1ccc2c(c1)CC(=O)N([C@@H](C)CO)C[C@@H](C)[C@H](CN(C)C)O2	i	i	i	i
Cc1noc(C)c1NC(=O)Nc1cccc2c1O[C@H](CN(C)Cc1ccc(Cl)c(Cl)c1)[C@H](C)CN([C@H](C)CO)C2=O	i	i	i	i
Cc1noc(C)c1NC(=O)Nc1ccc2c(c1)CC(=O)N([C@@H](C)CO)C[C@H](C)[C@H](CN(C)Cc1ccncc1)O2	i	i	i	i
CC(C)NC(=O)N(C)C[C@@H]1OCCCC[C@@H](C)Oc2ccc(NC(=O)Nc3ccc4c(c3)OCO4)cc2C(=O)N([C@@H](C)CO)C[C@H]1C	i	i	i	i
CCCNC(=O)[C@@H]1c2ccccc2C(=O)N(Cc2ccccc2OC)[C@H]1c1ccc(CO)cc1	i	i	/	i
C[C@H](CO)N1C[C@H](C)[C@H](CN(C)C(=O)CCCN(C)C)OCc2cn(nn2)CCCC1=O	i	i	i	i
CC(C)(C)OC(=O)CC[C@@]12N=C(c3ccc(OCCCO)cc3)O[C@@H]1c1ccccc1N(CCS(=O)(=O)c1ccccc1)C2=O	i	i	i	i
CC(=O)Nc1ccccc1NS(=O)(=O)c1ccccc1[N+](=O)[O-]	i	i	i	i
CC(C)(O)CCCC(C)(O)c1ccc(C(=O)O)cc1O (configuration not stated)	i	i	i	i
CN(C)c1nc(NC(C)(C)C)nc(SCC(=O)Nc2ccccc2)n1	i	i	i	i
C[C@@H]1CN([C@H](C)CO)C(=O)c2cccc(NS(=O)(=O)c3cccs3)c2O[C@H]1CN(C)C(=O)Nc1ccc(C(F)(F)F)cc1	i	i	i	i
CNC[C@H]1OCCCC[C@@H](C)Oc2ccc(NC(=O)C3CCCCC3)cc2C(=O)N([C@H](C)CO)C[C@@H]1C	i	i	i	i
CC(C)NC(=O)Nc1ccc2c(c1)C(=O)N([C@H](C)CO)C[C@H](C)[C@@H](CN(C)C(=O)c1ccccc1)OCCCC[C@H](C)O2	i	i	/	i
Cc1ccccc1-c1nnc(SCC(=O)Nc2ccc(Br)c(C)c2C)n1C	i	i	i	i
Cc1onc(-c2c(F)cccc2Cl)c1C(=O)Nc1cccc(Cn2cccn2)c1	i	i	i	i
C[C@H](CO)N1C[C@H](C)[C@H](CN(C)C(=O)Nc2ccc3c(c2)OCO3)Oc2ccc(NS(=O)(=O)c3cccs3)cc2CC1=O	i	i	i	i
Cc1noc(C)c1NC(=O)N(C)C[C@@H]1OCCCC[C@@H](C)Oc2ccc(NS(C)(=O)=O)cc2C(=O)N([C@@H](C)CO)C[C@H]1C	i	i	i	i
C[C@@H]1CN([C@H](C)CO)C(=O)c2cc(NC(=O)C3CC3)ccc2O[C@@H]1CN(C)S(=O)(=O)c1cn(C)cn1	i	i	i	i
OC(COc1ccc2ccccc2c1)Cn1cncn1 (configuration not stated)	i	i	i	i
CCO[C@H]1OC(C(=O)NC2CC2)=C[C@@H](C2CC2)[C@@H]1CCCO	i	i	i	i
O=C(NCCCN1CCCC1=O)Nc1ccc(Cl)cc1	i	i	i	i
CO[C@@H]1CC(OC2CCC3(C)C(CCC45CCC(C6=CC(=O)OC6)C(C)(CCC43)C5=O)C2)O[C@H](C)[C@@H]1O[C@@H]1O[C@H](CO[C@@H]2O[C@H](CO)[C@@H](O)[C@H](O)[C@H]2O)[C@@H](O)[C@H](O)[C@H]1O (some centres not stated)	i	i	i	i
C[C@@H]1CN([C@H](C)CO)C(=O)c2cccc(NC(=O)Nc3ccc(C(F)(F)F)cc3)c2O[C@@H]1CN(C)C(=O)Nc1ccc(F)cc1	i	i	i	i

Whole records as entered above. Order of screens: c-Myc SMM | STAT3 SMM | ID4 binder | p53 mut binder
C[C@@H]1CN([C@H](C)CO)C(=O)c2cc(NC(=O)C3CC3)ccc2O[C@@H]1CN(C)S(=O)(=O)c1cn(C)cn1 reads i | i | i | i
Cc1onc(-c2c(F)cccc2Cl)c1C(=O)Nc1cccc(Cn2cccn2)c1 reads i | i | i | i

Not all compounds are listed; count on the stated rates, not on these rows.
